# KCNQ2 enhance: potentiators of rat KCNQ2 potassium channel | O88943 | CHO-K1 KCNQ2, FluxOR thallium flux fluorescence; stronger effect = higher value | B-score at 10 µM | actives 0.54% (n = 310,000) | AID 2239;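 active means fluorescence ratio B-score at least 3 SD of library B-scores, with initial fluorescence B-score within 3 SD, cut at about 5.3 in these data; same plate scores as AID 2156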;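 further: B-score of peak minus minimum over baseline fluorescence ratio after K+ and Tl+ stimulus; positive B-score means potentiation of KCNQ2 with more thallium influx and brighter signal; only the inactives scoring about 0 or higher are listed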
# Target sequence (O88943 whole entry, looked up): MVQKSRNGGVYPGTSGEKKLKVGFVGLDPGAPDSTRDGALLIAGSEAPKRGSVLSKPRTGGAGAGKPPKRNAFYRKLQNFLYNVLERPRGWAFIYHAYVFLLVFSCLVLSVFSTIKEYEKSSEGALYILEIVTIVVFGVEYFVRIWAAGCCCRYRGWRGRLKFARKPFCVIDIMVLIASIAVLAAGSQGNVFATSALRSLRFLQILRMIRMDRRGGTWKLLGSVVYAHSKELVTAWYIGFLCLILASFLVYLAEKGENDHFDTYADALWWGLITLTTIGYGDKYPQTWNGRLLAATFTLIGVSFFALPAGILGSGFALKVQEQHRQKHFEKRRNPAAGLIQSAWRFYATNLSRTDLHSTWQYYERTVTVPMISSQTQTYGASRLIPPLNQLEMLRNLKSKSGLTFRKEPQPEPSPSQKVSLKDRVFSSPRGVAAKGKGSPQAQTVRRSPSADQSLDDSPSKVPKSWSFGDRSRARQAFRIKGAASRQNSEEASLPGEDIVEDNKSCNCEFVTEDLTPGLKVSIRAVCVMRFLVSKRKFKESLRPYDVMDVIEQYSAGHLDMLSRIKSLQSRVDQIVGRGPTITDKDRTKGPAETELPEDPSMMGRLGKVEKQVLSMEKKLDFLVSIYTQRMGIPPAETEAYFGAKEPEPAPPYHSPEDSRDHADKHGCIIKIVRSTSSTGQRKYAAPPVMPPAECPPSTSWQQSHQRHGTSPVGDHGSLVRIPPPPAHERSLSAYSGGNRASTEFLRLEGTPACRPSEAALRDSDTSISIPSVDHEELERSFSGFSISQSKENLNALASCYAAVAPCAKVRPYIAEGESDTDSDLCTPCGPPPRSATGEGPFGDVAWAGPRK
# KCNQ2 enhance baseline: second read-out of KCNQ2 enhance, no call of its own (marks repeat the call); B-score; compound at 10 µM; measured here: initial fluorescence intensity artifact check;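 brightness before thallium and not channel activity; 0 = typical well and far values either way flag optical interference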
# * = called active by the depositor. The list is partial (hit frequency here may not be typical).
SMILES,KCNQ2 enhance,KCNQ2 enhance baseline
COc1ccc(N(C(=O)c2ccco2)C(C(=O)NC2CCCCC2)c2ccccc2)cc1 (stereo not drawn),0.83,0.33
O=C(NCCSCc1ccccc1)c1ccccc1,0.01,-0.49
Cc1ccc(-c2cc(C(F)(F)F)n3ncc(C(=O)O)c3n2)cc1,0.71,1.5
CC(=O)Nc1ccc(S(=O)(=O)Nc2ccc(Cl)cn2)cc1,1,0.27
CNS(=O)(=O)c1cccc(C(=O)OCC(=O)Nc2ccc(Cl)cn2)c1,2.4,-0.05
Cc1ccc(-c2cc(C(=O)N3CCc4ccccc4C3)no2)cc1,1.4,-0.87
CCCC(NS(=O)(=O)c1ccc(-c2ccc(=O)[nH]n2)s1)c1cccs1 (stereo not drawn),2.9,0.28
CCc1noc(C)c1C(=O)NNC(=O)c1ccc(Br)cc1,0.87,-0.22
Cc1ccccc1C(=O)Nc1cccc(NC(=O)c2ccc(F)cc2)c1,0.95,-1
COC(=O)c1cc(NC(=O)C2C3C=CC(C3)C2C(=O)O)cc(C(=O)OC)c1 (stereo not drawn),0.03,0.38
Cc1ccc(C(=O)NCC(=O)NCC(=O)OCC(=O)c2cccs2)cc1,0.65,-1.1
CCOC(=O)c1cnc(SCC(=O)c2ccc(C)cc2)nc1N,1.2,-1.3
COc1ccc(CCn2c(N3CCOCC3)nc3c2c(=O)[nH]c(=O)n3C)cc1,0.07,1.3
Cc1cc(C)c2nc(NNC(=O)c3ccc(S(=O)(=O)N4CCCC(C)C4)cc3)sc2c1 (stereo not drawn),1.8,0.13
O=C(N=C1N=C2C=CC=CN2Cc2ccccc21)c1ccc(S(=O)(=O)N2CCOCC2)cc1,0.09,-0.04
CCN(Cc1ccncc1)C(=S)Nc1ccccc1,1.1,0.3
Cc1c(C(=O)OC(C)C)[nH]c2c1C(=O)CCC2,0.47,-0.85
CCNC(=O)c1cccc(NC(=O)CC2SC(N3CCCCC3)=NC2=O)c1 (stereo not drawn),0.62,0.02
CCOC(=O)C1=C(C)N=c2s/c(=C\c3ccc(C(=O)O)cc3)c(=O)n2C1c1ccc(F)cc1 (stereo not drawn),7*,-0.77*
COCc1cc(C)nc(SCC(=O)c2ccc(O)c(O)c2)c1C#N,0.78,-0.02
CCCCSCc1cc(C(=O)O)oc1C(C)(C)C,1,0.75
Cc1cc(C)c(S(=O)(=O)Nc2ccc(O)c(Sc3ncn[nH]3)c2)cc1C,3.5,2
CCOC(=O)CON1C(=O)C(=O)N(OCC(=O)OCC)C2CCCCC21 (stereo not drawn),1.9,-1.9
COc1ccccc1OCCC(=O)OCC(=O)c1[nH]c(C)c(C(C)=O)c1C,0.13,-0.62
Cc1nc2sc(C(=O)c3ccccc3)c(N)c2c(C)c1C,0.95,0.04
Cc1cccc(CC2S/C(=N/c3cccc(C)n3)NC2=O)c1 (stereo not drawn),0.56,-0.74
CC(=O)c1cccc(OCc2cc(C(=O)NC(C)Cc3cccnc3)no2)c1 (stereo not drawn),0.3,-0.18
COC(=O)c1cc2sccc2n1CC(=O)N(C)c1ccccc1,0.18,-0.15
COCCOC1CCN(C(=O)C2CCC(=O)N(CCc3cccc(F)c3)C2)CC1 (stereo not drawn),0.83,-0.11
CCOC(=O)C1CCN(CC(O)COCc2ccccc2)CC1 (stereo not drawn),1.4,1.2
CC/C(C)=N/Nc1cccc([N+](=O)[O-])c1,0.7,0.94
O=C(Cc1c(F)cccc1Cl)Nc1ccc(-n2cnnn2)cc1,0.11,-0.07
CCOc1ccccc1CNCCO,0.92,-0.01
COc1ccc(NC(=O)COC(=O)Cc2cccs2)cc1OC,1.1,0.07
CCN(Cc1ccccc1)S(=O)(=O)CCNC(=O)c1ccc(OC)cc1,1.9,-4
O=C(CSc1nc2ccccc2c(=O)[nH]1)Nc1ccccc1N1CCOCC1,0.22,0.64
CC/C(=N/NC(=O)c1ccc2c(c1)OCO2)c1ccccc1O,7.9*,0.28*
Cn1c(=O)c2c(ncn2CC(=O)OCc2ccccc2)n(C)c1=O,0.74,0.45
Fc1cc(F)c(F)c(SCCc2ccncc2)c1F,0.24,0.03
Cc1onc(-c2ccccc2)c1C(=O)NCc1ccccn1,1.2,-1.1
O=C(c1cc(-c2ccccc2O)on1)N1CCCC1,0.26,2.3
CC(NC(=O)Cn1nc(C(F)(F)F)c2c1CCC2)c1ccccc1 (stereo not drawn),4.1,-0.14
CNC(=O)c1cccc(N2CCCC2=O)c1,1.3,-0.06
CCN1CCN(Cc2ccc(NC(=O)Nc3ccccc3)cc2)CC1,1.4,0.67
COc1ccc(CCNS(=O)(=O)c2ccccc2)cc1OC,0.08,-0.07
CCCCCCOC(=O)NCC(O)c1ccccc1 (stereo not drawn),0.27,-0.91
C/C(=N\NC(=O)C(N)=O)c1cccc(C(F)(F)F)c1,1.7,-0.88
O=C(NCC1CCCO1)c1ccc2c(=O)n(Cc3ccco3)c(SCC(=O)N3CCCC3)nc2c1 (stereo not drawn),0.56,-0.35
CC(C)CC(=O)N(c1nnc(-c2cccnc2)s1)C1CCCC1,1,0.4
CCCNC(=S)NNC(=O)c1cc(-c2cccnc2)nc2ccccc12,0.04,-0.02
Cc1ccc(C(=O)N2CCN(Cc3ccccc3)CC2)o1,2.4,-2
Cc1ccc(S(=O)(=O)N2CCOCC2)cc1C(=O)NCc1cccs1,0.67,0.12
COC(=O)CSc1nc(C2CC2)cc(C(F)(F)F)c1C#N,0.01,-0.31
Cc1ccc(Cl)cc1N1CCN(CC(O)COC(C)C)CC1 (stereo not drawn),0.47,0.37
CCCc1nc(SCC(=O)Nc2ccccc2)c2c(=O)n(C)c(=O)n(C)c2n1,1.5,-1.3
COc1ccc(Br)cc1/C=N/N1C(=O)CSC1=S,0.96,0.14
Cc1noc(C)c1COC(=O)C1CCN(S(=O)(=O)c2c(Cl)cccc2Cl)CC1,0.93,0.74
CCCCCCCCCCOC(=O)C[N+](C)(C)CC1CCCCC1O (stereo not drawn),0.16,0.78
COc1ccccc1N(Cc1ccccc1)S(=O)(=O)c1cccc(C(=O)Nc2ccc(C(C)=O)cc2)c1,0.11,0.49
CCC(=O)NC(=S)Nc1ccc(NC(=O)COc2ccc(Cl)cc2Cl)cc1,1.1,0.07

# (more compounds)
SMILES,KCNQ2 enhance,KCNQ2 enhance baseline
COc1ccc(CCNC(=O)CSc2nnc3ccc(-c4cccnc4)nn23)cc1OC,0.64,-0.16
CCN(CC)C(=O)CSc1nnc(-c2cc3ccccc3cc2O)n1CC,0.93,2
CC(=O)Nc1ccc(S(=O)(=O)NCCc2c[nH]c3ccc(C)cc23)cc1,1.4,-2.4
O=C(CN1CCCCC1)N/N=C/c1cc2ccccc2nc1Cl,1.6,-1.3
Cc1ccc(S(=O)(=O)NC2CC(=O)N(c3ccc4c(c3)OCCO4)C2)cc1 (stereo not drawn),0.36,0.71
O=C(CNC(=O)c1ccc(Cl)cc1)OCCCOC(=O)CNC(=O)c1ccc(Cl)cc1,1.3,-1.5
CCCOc1cc2c(C#N)c(N3CCCC3)nc(N)c2c(N)n1,0.48,0.55
c1ccc(C(c2ccccc2)c2noc(CN3CCN(CC4CC4)CC3)n2)cc1,0.41,-1.2
O=c1n(-c2ccccc2)c(=O)n2n1CCCC2,0.04,-0.05
O=C(O)c1ccccc1-c1ccccc1C(=O)NCc1ccccc1F,0.08,0.01
Cc1ccc(NC(=O)CSc2ncnc3ccccc23)cc1S(=O)(=O)N1CCCCC1,1.1,-1.1
CCCc1cc(N2CCCC(C(=O)Nc3c(OC)cccc3OC)C2)n2ncnc2n1 (stereo not drawn),0.32,0.18
COc1ccc(CCN2CC(C(=O)NCc3nc(C)c(C)s3)CCC2=O)cc1 (stereo not drawn),0.85,-0.84
CS(=O)(=O)CCC(C(=O)N1CCOCC1)N1C(=O)c2cc(Cl)c(Cl)cc2C1=O (stereo not drawn),0.16,0.39
Cc1ccc(NC(=O)C(=O)NN=C2CCCC2)cc1C,1.4,-0.61
CC(NC(=O)Nc1cccc([N+](=O)[O-])c1)(C(F)(F)F)C(F)(F)F,1.8,0.42
COc1ccc(C2C(C(=O)c3cccs3)=C(O)C(=O)N2CCN2CCOCC2)c(OC)c1 (stereo not drawn),1.1,0.15
COc1ccc(CNCCc2ccccc2)cc1OCC(N)=O,2.4,-2.5
Cc1cc(/C=N/NC(=O)c2ccccc2F)c(C)n1-c1ccccc1,0.5,0.5
O=C(CNC(=O)c1ccccc1F)OCC(=O)N1CCCCC1,1.2,0.42
CN(CC(=O)NCc1cccs1)S(=O)(=O)c1cccc2cccnc12,0.29,-0.66
O=C1NC(NS(=O)(=O)c2ccc(Cl)cc2)(C(F)(F)F)C(=O)N1c1ccccc1 (stereo not drawn),1.3,0.85
Cn1c(=N)n(CC(O)c2cccs2)c2ccccc21 (stereo not drawn),1.4,1.9
CS(=O)(=O)c1ccc(-c2cccc(NC(=O)COc3ccc(Cl)cc3)c2)nn1,0.21,4
N#Cc1ccc(N2CCc3ccccc3C2)c([N+](=O)[O-])c1,0.51,-1.3
CS(=O)(=O)Nc1ccc2[nH]c(=O)[nH]c2c1,0.41,-0.17
O=C(O)c1ccc(-c2nnn(Cc3cccc(C(F)(F)F)c3)n2)cc1,0.94,1.8
CCOC(=O)C(C(=O)c1ccccc1)C1CC(C)NC(=S)N1 (stereo not drawn),0.56,-1.6
O=S1(=O)CCC(NC2CCCC2)C1 (stereo not drawn),0.33,2.1
CC(NC(=O)c1ccccc1NS(C)(=O)=O)c1ccccc1 (stereo not drawn),0.32,-0.89

# Rewritten with each value named: part of the list above.
Molecule: O=C(NCC1CCCO1)c1ccc2c(=O)n(Cc3ccco3)c(SCC(=O)N3CCCC3)nc2c1 (stereo not drawn)
  KCNQ2 enhance: 0.56
  KCNQ2 enhance baseline: -0.35
Molecule: CC(C)CC(=O)N(c1nnc(-c2cccnc2)s1)C1CCCC1
  KCNQ2 enhance: 1
  KCNQ2 enhance baseline: 0.4
Molecule: CCCNC(=S)NNC(=O)c1cc(-c2cccnc2)nc2ccccc12
  KCNQ2 enhance: 0.04
  KCNQ2 enhance baseline: -0.02
Molecule: Cc1ccc(C(=O)N2CCN(Cc3ccccc3)CC2)o1
  KCNQ2 enhance: 2.4
  KCNQ2 enhance baseline: -2

# Next part:
SMILES,KCNQ2 enhance,KCNQ2 enhance baseline
O=C(N/N=C/c1cccnc1)C(O)(c1ccccc1)c1ccccc1,0.5,-1.2
CCOC(=O)C1CCN(C(=O)c2cccc(C(=O)N3CCC(C(=O)OCC)CC3)c2)CC1,0.4,0.72
COc1ccccc1C(=O)N/C(=C\c1cn(S(=O)(=O)N(C)C)c2ccccc12)C(=O)NCCCN1CCOCC1,3.3,1.2
CC(C)CCN1C(=O)CCC1(C)C(=O)NC1CCCCCC1 (stereo not drawn),0.45,1.7
Cc1ccc(CNC(=O)c2c(-c3ccccc3)noc2C)cc1,0.79,-0.28
Cc1ccc(C2C3C(=O)N(c4ccccc4)C(=O)C3N3CCCN23)cc1 (stereo not drawn),0.24,1.9
Cc1cccc2c(=O)c(Br)c(C)n(Cc3ccccc3)c12,0.08,0.49
CCC1=NN(C(=O)Cc2ccc([N+](=O)[O-])cc2)C(O)(c2ccncc2)C1 (stereo not drawn),0.22,0.14
O=C(CCN1C(=O)/C(=C/c2ccc(Cl)cc2)SC1=S)NCCCn1ccnc1,0.78,-0.36
Cc1nc(SCC(=O)c2ccc(F)c(F)c2)[nH]c(=O)c1Oc1ccc(Cl)cc1,1.2,1.1
COc1ccc(-c2nc3nc(N)nn3cc2C)cc1F,0.44,1.8
Cc1cc(NC(=S)Nc2ccccc2)ccc1Br,0.59,-0.6
CC(=O)Nc1ccc2c3c(cccc13)CC2,1.4,-1
Cc1cccc(NC(=S)NCc2ccc3c(c2)cc(C)n3C)c1C,1.1,-1.8
O=C(/C=C/c1ccc([N+](=O)[O-])cc1)NCCSCc1ccco1,1.1,-1.7
CN(C)c1ccc(/C=C/C(=O)c2ccc(O)cc2)cc1[N+](=O)[O-],1.1,0.18
CCc1ccc(C(=O)OCC(=O)N(CCOC)c2c(N)n(Cc3ccccc3)c(=O)[nH]c2=O)cc1,0.57,-0.94
CCCCC(=O)Nc1sc2c(c1C(N)=O)CCC2,0.51,0.06
CC(CC(=O)N1CCc2ccccc21)n1cccn1 (stereo not drawn),0.12,1.1
O=C(NCc1ccco1)c1cccc2ccccc12,1.6,1.4
CS(=O)(=O)N1CCN(C(=S)NCc2ccc(Cl)cc2)CC1,1.5,-1.9
N/C(=N\OC(=O)Cc1ccccc1)c1cccnc1,1.4,-1
CCC(=O)N(CC(=O)Nc1sc(C)c(C)c1C(N)=O)C1CCCC1,2.7,-2.8
CCOc1ccc(S(=O)(=O)NCCC(=O)NCC(c2ccccc2OC)N2CCCC2)cc1 (stereo not drawn),0.59,-3.5
CCCN1CNc2c(c(=O)[nH]c(=S)n2-c2ccccc2Cl)C1,0.67,0.91
O=C(NNC(=S)Nc1ccc(Cl)cc1Cl)c1ccc(N2CCOCC2)c([N+](=O)[O-])c1,4.3,1.1
N#CCSc1nnc(-c2ccccc2O)n1Cc1ccccc1,1.5,-0.16

# Record cards, from the list above.
# CCOc1ccc(S(=O)(=O)NCCC(=O)NCC(c2ccccc2OC)N2CCCC2)cc1 (stereo not drawn) in the list: KCNQ2 enhance = 0.59; KCNQ2 enhance baseline = -3.5
# N/C(=N\OC(=O)Cc1ccccc1)c1cccnc1 in the list: KCNQ2 enhance = 1.4; KCNQ2 enhance baseline = -1
# CS(=O)(=O)N1CCN(C(=S)NCc2ccc(Cl)cc2)CC1 in the list: KCNQ2 enhance = 1.5; KCNQ2 enhance baseline = -1.9

# Another view of some results above.
compound	KCNQ2 enhance	KCNQ2 enhance baseline
CCN1CCN(Cc2ccc(NC(=O)Nc3ccccc3)cc2)CC1	1.4	0.67
COc1ccc(CCNS(=O)(=O)c2ccccc2)cc1OC	0.08	-0.07

# From PubChem
